From PubChem
UCH37 DUB inh – blocks the human deubiquitinase UCH37; Q9Y5K5; purified proteasome/UCH37, Ub-AMC cleavage fluorescence; inhibition, % (no concentration beside the values); 330,000 tested, 0.33% active;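 active = mean of two replicates above 20%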;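 note: 0% = compound-free wells with enzyme and 100% = wells lacking proteasome; stock transfer was 100 nL into about 20 µL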
Target sequence (Q9Y5K5 whole entry, looked up): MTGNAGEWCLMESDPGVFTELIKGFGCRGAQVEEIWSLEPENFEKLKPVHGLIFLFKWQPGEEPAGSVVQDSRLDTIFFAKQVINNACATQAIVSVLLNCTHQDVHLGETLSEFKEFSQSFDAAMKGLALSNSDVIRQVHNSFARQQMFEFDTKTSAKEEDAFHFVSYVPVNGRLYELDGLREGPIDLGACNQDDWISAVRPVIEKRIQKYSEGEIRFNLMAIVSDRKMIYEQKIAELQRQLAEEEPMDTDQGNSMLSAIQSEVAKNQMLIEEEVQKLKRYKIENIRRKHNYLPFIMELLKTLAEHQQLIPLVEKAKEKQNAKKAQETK
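system = Proteasome-associated human UCH37 deubiquitinase | amount = 0.15 nM proteasome as dispensed | medium = pH 7.4 Tris-HCl (50 mM) with ovalbumin, ATP-MgCl2, DTT | incubation = 30 min preincubation with enzyme, 25 min cleavage at room temperature | detection = AMC fluorescence 355/460 nm | read-out basis = percent inhibition | controls = no-proteasome and no-compound wells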
Active calls of the source: *; i = inactive.

smiles,UCH37 DUB inh
Clc1cccc(C=NNc2nc(Cl)nc3ccccc23)c1,1.5
CC(=O)Oc1oc(-c2ccccc2)nc1C=Nc1ccccn1,4.2
CCCc1ccc(OCc2ccc(C(=O)NN=Cc3cccc([N+](=O)[O-])c3)o2)c(OC)c1,6.3
CC(C)(C)N=C1SCC(C)(C=NO)S1 (stereo not given),2.9
COC(=O)NN=C/C=C/c1ccc2c(c1)OCO2,0.8
Cc1ccc2nc(C(Cl)(Cl)Cl)nc(NN=Cc3ccncc3)c2c1,8.5
COc1ccc(C(C)=NNC(=O)C2C3CCCCC32)c(OC)c1 (stereo not given),3.9
O=C(CSCC(=O)Nc1ccccc1)NN=Cc1c(O)ccc2ccccc12,-3.0
Cc1ccccc1-c1nc2ccccc2c(=O)n1N=Cc1ccc([N+](=O)[O-])cc1,2.9
O=C(CCC(=O)NN=Cc1ccccc1O)NCc1ccccc1,-37
COc1cccc(C=NNC(=O)CN(C2=NS(=O)(=O)c3ccccc32)c2ccccc2)c1,-1.5
O=C(Cc1cccs1)NN=Cc1ccccc1,-0.2
COc1ccccc1-c1nnc(SCC(O)=C(C#N)c2nc3ccccc3[nH]2)n1C1CCCCC1,5.5
Cc1ccc(CN2CCN(N=Cc3cc([N+](=O)[O-])ccc3Cl)CC2)cc1,4.2
Clc1ccc2c(NN=Cc3cccnc3)ccnc2c1,-7.6
COCCCNC(=O)c1c(N)n(N=Cc2cccs2)c2nc3ccccc3nc12,-391
O=C(NN=Cc1cc(Br)c(O)c(Br)c1)c1cccnc1,18
COc1ccc(C=NNC(=O)CNC(=O)/C=C/c2ccccc2OC)cc1,-10
O=C(NN=Cc1c[nH]c2ccccc12)c1cc(-c2ccc(-c3ccccc3)cc2)n[nH]1,1.7
CN(CCCNC(=O)c1ccc(C=NO)nc1)CCCN(C)Cc1ccccc1,2.3
CC(Cc1ccccc1)=NNC(=O)CNC(=O)c1ccc2c(c1)OCCO2,3.4
O=C(Cn1nnc2ccccc21)NN=Cc1ccco1,7.3
CC(=NNC(=O)Cn1c(C)nc2ccccc21)c1cccs1,3.4
CC(=NNC(=O)Cn1nc2ccccc2n1)c1ccc(F)cc1,-2.1
CCCCN(CCCC)C(=O)C[n+]1cccc(C=NO)c1,0.4
Cc1ccc(C=Nn2c(-c3cccc(Cl)c3)n[nH]c2=S)o1,5.2
O=C(CSc1nc2ccccc2[nH]1)NN=Cc1ccncc1,4.3
CC(=NNC(=O)Nc1ccccc1)c1ccccc1,-1.0
CN(N=Cc1ccccc1Cl)c1ncc(Cl)cc1C(F)(F)F,6.6
CCOc1ccc(Cl)cc1C=NNC(N)=O,1.4
O=C(O)c1cccc2c(C=NNc3ccccn3)c[nH]c12,13
CCOc1cc(C=NNC(=S)Nc2ccccc2C(F)(F)F)ccc1OCC(=O)N1CCOCC1,6.1
CC(Cc1ccccc1)=NNC(=O)CNC(=O)c1ccc(Cl)cc1,1.6
COc1ccc(C=NOCC(=O)N=Nc2c(O)[nH]c3ccc(Br)cc23)cc1OC,12
O=C(NN=Cc1ccco1)c1cc(C2CC2)[nH]n1,6.7
CN(C)S(=O)(=O)c1ccc(C(=O)NCC(=O)NN=Cc2ccco2)cc1,0.8
Cc1ccccc1NC(=S)NN=CC(C)c1ccccc1 (stereo not given),1.5
O=C(C[n+]1ccccc1)NN=Cc1ccccc1[N+](=O)[O-],6.2
CCN(CC)c1cnn(CC(=NOC)c2ccc(Cl)cc2)c(=O)c1Br,1.1
O=C(NN=Cc1ccc(OCc2ccccc2)cc1)c1cccs1,-26

Two of these compounds, set out differently:
O=C(O)c1cccc2c(C=NNc3ccccn3)c[nH]c12
- UCH37 DUB inh: 13

CCOc1cc(C=NNC(=S)Nc2ccccc2C(F)(F)F)ccc1OCC(=O)N1CCOCC1
- UCH37 DUB inh: 6.1

(next part)
smiles,UCH37 DUB inh
CCN1/C(=C/c2ccc3cc(C)ccc3[n+]2CC)Sc2cc(C)ccc21,14
O=C(NN=Cc1ccc(-n2ccnc2)cc1)c1cccs1,4.5
O=C(Nc1ccccc1)ON=C1CCCc2occc21,1.8
Cc1cc([N+](=O)[O-])c2[nH]c(C(=O)NN=Cc3ccccc3C(=O)O)c(-c3ccccc3)c2c1,12
COc1ccc(O)c(C=NNc2nc(C)cc(-c3ccccc3)n2)c1,3.1
O=C(NN=Cc1ccc(F)cc1)c1ccc(Br)cc1,4.0
O=C(NN=Cc1ccc(Cl)cc1)C1CC12CCC2 (stereo not given),3.3
Cc1cccc(C(=O)ON=Cc2c(Cl)n(C)c3ccccc23)c1,4.3
CN1CCN(C=Nc2c(C#N)cnn2Cc2ccccc2)CC1,4.4
CC(=NNc1ccc(C(F)(F)F)cn1)c1ccncc1,9.3
CC(C)(C)c1ccc(C(=O)NN=C2C3CN4CCN(C3)CC2(c2ccccc2)C4)cc1,-0.6
CC(Cn1nnc2ccccc21)=NNC(=O)c1ccc(Br)cc1,0.5
Cc1cc(C(=O)NN=Cc2cc(Br)c(Br)o2)n[nH]1,6.5
O=C(NN=Cc1cccc([N+](=O)[O-])c1O)C1COc2ccccc2O1 (stereo not given),16
CCOC(=O)CCCc1ccc(C(C)=NNC(=S)NC)cc1,2.7
COc1ccc2c(c1)-c1nc(N=Cc3cccc(OC)c3O)sc1CC2,5.0
CC(NC(=O)COc1ccc(C=NNS(=O)(=O)c2ccccc2)cc1)c1ccccc1 (stereo not given),-0.7
CC1(C)C2CC=C(C=NNC(=O)c3ccccc3O)C1C2 (stereo not given),0.0
S=C(NCCc1ccccc1)NN=Cc1cccs1,2.8
CC1=CC(=N/N=C2/NC(=O)C(CC(=O)Nc3ccccc3F)S2)CC(C)(C)C1 (stereo not given),4.1

Another view of 6 compounds above:
UCH37 DUB inh | compound
5.2 | Cc1ccc(C=Nn2c(-c3cccc(Cl)c3)n[nH]c2=S)o1
4.3 | O=C(CSc1nc2ccccc2[nH]1)NN=Cc1ccncc1
-1.0 | CC(=NNC(=O)Nc1ccccc1)c1ccccc1
6.6 | CN(N=Cc1ccccc1Cl)c1ncc(Cl)cc1C(F)(F)F
1.4 | CCOc1ccc(Cl)cc1C=NNC(N)=O
13 | O=C(O)c1cccc2c(C=NNc3ccccn3)c[nH]c12

(cont.)
smiles,UCH37 DUB inh
Cc1[nH]n(-c2ccccc2)c(=O)c1C=NNC(=O)c1cccc(F)c1,-3.4
NC(=NOC(=O)c1ccc(F)cc1)c1nonc1N,-0.2
COc1ccc(C=NNc2nc(C)cc(-c3ccccc3)n2)c(OC)c1,-4.6
Cn1c(=O)c2c(nc(NN=Cc3cccs3)n2Cc2ccccc2)n(C)c1=O,-3.3
Cc1ccc(C=NNC(=O)CN2C(=O)CSc3ccccc32)o1,4.0
COc1ccc(CC(=O)NN=C(C)c2cccnc2)cc1,1.3
CCCCNC(=O)N(O)C1N(N=Cc2ccco2)C(=S)SC1(C)C (stereo not given),15
CCCOc1cccc(-c2cc(C(=O)NN=Cc3cccnc3)c3ccccc3n2)c1,1.1
CC(=NNc1ccccc1)c1cccc(N)c1,1.8
CC(=NNC(=O)C1CC1)c1ccc(C)cc1C,6.3
CCCOc1ccc2ccccc2c1C=Nn1cnnc1,6.9
COc1ccc(/C=C(\NC(=O)c2ccccc2)C(=O)NN=Cc2ccncc2)cc1,15
CC(=NNC(=O)c1cc(C(C)C)[nH]n1)c1cccs1,8.0
O=C(NN=C1CC(c2ccccc2)Oc2ccccc21)C1CC1 (stereo not given),3.7
COc1ccc(C=NNc2nc3ccccc3c(=O)[nH]2)cc1,5.7
CC(=NNC(=O)c1ccco1)c1ccc(NC(=O)c2cccs2)cc1,-1.6
CCCCN1C(=O)/C(=C2/Sc3ccccc3N2C)SC1=Nc1ncn[nH]1,-48
O=C(NN=Cc1ccco1)C1(O)c2ccccc2-c2ccccc21,2.3
Cc1ccc(C=NN2CCN(c3ccccn3)CC2)cc1,0.8
COc1cc(NC(=O)CC(C)=NNC(=O)C(=O)NC2CCCCC2)c(OC)cc1Cl,4.6
NC(=S)NN=Cc1ccc(-c2ccc([N+](=O)[O-])cc2)o1,4.2
O=C(Cn1nc2n(c1=O)-c1ccccc1SC2)NN=Cc1cccnc1,4.0
O=C(NN=Cc1cccc([N+](=O)[O-])c1)c1cc(-c2ccccc2)nc2ccccc12,-0.4
C=CCn1c(=C(C#N)c2nnc3n2CCCCC3)sc(=Cc2ccc(Cl)cc2)c1=O,8.5
O=C(NN=Cc1ccoc1)c1ccccc1O,2.3
S=c1[nH]nc(COc2ccccc2)n1N=Cc1ccccc1Br,0.5
CC(=NNC(=O)c1ccc(OC2OCCOC2Oc2ccc(C(=O)NN=C(C)c3ccncc3)cc2)cc1)c1ccncc1 (stereo not given),7.9
Cc1ccc(-c2ccc(C=NNC(=S)Nc3ccccc3)o2)cc1[N+](=O)[O-],4.9
COCC1=C(C(=O)OC(C)OC(=O)OC(C)C)N2C(=O)[C@@H](NC(=O)C(=NOC)c3csc(N)n3)[C@H]2SC1 (stereo not given in full),1.3
Cn1c(=O)n(C)c2cc(C=NNC(=O)c3ccncc3)ccc21,15
COC(=O)NN=Cc1cn(CC(C)COc2ccccc2)c2ccccc12 (stereo not given),-1.8
O=C(NN=Cc1cccn1-c1ccc([N+](=O)[O-])cc1)c1cccnc1,12
O=C(NN=C1CCS(=O)(=O)c2ccc(F)cc21)c1ccc(O)cc1,3.2
Cc1ccsc1C=NNC(=O)CC(=O)NCc1ccccc1,4.8
Cc1ccc(C)c(S(=O)(=O)NN=Cc2ccc(F)cc2)c1,-0.9
Cc1nc2ccccc2n1CC(=O)NN=Cc1cccs1,-1.2
Cc1sc(NN=Cc2cccs2)nc1-c1ccccc1,2.6
CCCCCCOc1ccc(C(C)=NNC2=NCCN2)cc1,4.8
COc1ccc(-c2ccnc3nc(N=CN(C)C)nn23)cc1,i
CC12CN3CCN(CC(C3)C1=NNC(=O)Nc1ccccc1)C2,-2.3
CC(C)Oc1ccccc1C=NNC(=O)C1CC1,5.0
CC(COc1ccccc1)=NNC(=O)c1nnn(-c2nonc2N)c1CSc1ccccc1,5.9
O=[N+]([O-])c1cccc(-c2ccc(C=NNC(=S)Nc3cccc(F)c3)o2)c1,5.1
COCC(=O)NN=Cc1ccc(Sc2nc3ccccc3s2)o1,5.8
CC(=NNC(=O)c1cc(O)c(O)c(O)c1)c1ccc([N+](=O)[O-])cc1,10
O=C(NN=Cc1ccc(COc2ccc([N+](=O)[O-])cc2)o1)c1cccc(Cl)c1,1.9
COc1ccc(C=NNC(=O)c2ccn[nH]2)cc1COc1ccc(Cl)cc1Cl,0.4
COc1ccc(C=NNC(=O)c2ccccc2OC)cc1COc1ccccc1C,-6.5
CN(C)CCCNCCCCNC(=O)C=NO,3.9
O=C(NN=Cc1cccs1)c1[nH]ncc1Br,6.0
Cc1c(N=C(N)N=C(N)Nc2ccccc2)c(=O)n(-c2ccccc2)n1C,2.4
Cc1cc(Cl)ccc1OCC(=O)NN=C1CCCc2ccccc21,-0.3
CC(=NNC(=O)Cc1csc(N2CCOCC2)n1)c1ccc(Cl)c(Cl)c1,1.4
CC(=NNc1ccc(S(=O)(=O)Nc2ccc(Cl)cc2)cc1[N+](=O)[O-])c1ccc(N2CCOCC2)cc1,7.1
CCCC(C)=NNc1nc2c(c(=O)n(C)c(=O)n2C)n1C,4.0
CC(=NNC(=O)c1ccc2c(c1)OCO2)c1ccc(O)cc1,3.1
COc1cc2cc(C(=O)NN=Cc3ccc(F)cc3)[nH]c2cc1OC,-30
CC(=NNC(=O)Cc1ccccc1)c1cccnc1,0.7
COc1ccc(NC(=O)CC2SC(=Nc3nccs3)N(C)C2=O)cc1 (stereo not given),3.9
CCn1c(C)nc2cc(C(=O)NN=Cc3ccc(O)cc3)ccc21,5.9

Remaining list, next part.
smiles,UCH37 DUB inh
CN(C)C(=O)C[n+]1ccc(C=NO)cc1,0.8
ON=Cc1ccccc1Oc1ccccc1,0.4
COc1ccc(C=NNc2cc(C)nc(N3CCOCC3)n2)cc1OC,8.8
Nc1nonc1-n1nnc(C(=O)NN=Cc2cccc(Cl)c2)c1CSc1ccccc1,5.1
O=C(CCc1nc2ccccc2[nH]c1=O)NN=Cc1ccccc1,-25
Oc1ccc(C=NNc2cc(N3CCCC3)nc(N3CCCC3)n2)cc1O,16
Cc1ccc(NCC(=O)NN=Cc2ccc[nH]2)cc1,2.2
COc1ccccc1/C=C/C(=O)NCC(=O)NN=Cc1ccc(C(=O)O)cc1,-17
Oc1ccc(Cl)cc1C=Nc1nccs1,5.2
CCC(=O)NN=C(C)CC(=O)Nc1cc(Cl)ccc1C,2.4
COCCNC(=S)NN=Cc1ccc(OCc2ccc(C(=O)OC)cc2)c(OC)c1,-5.7
O=C(CNC(=O)C12CC3CC(CC(C3)C1)C2)NN=Cc1ccco1,2.2
Cc1ccsc1C=NNc1nc(=O)[nH]nc1C,15
COc1cc(C=NNC(=O)c2ccccc2)ccc1O,6.4
O=C(NN=Cc1ccc(-c2ccc(Cl)c(Cl)c2)o1)C(=O)N1CCCC1,-9.5
O=C(CSc1ncn[nH]1)NN=Cc1ccc(Br)cc1,5.3
CC(Cc1ccccc1)=NNC(=O)c1ccc(F)cc1,3.4
Cc1ccc(COc2ccc(C=NNC(=O)c3ccc(CN4CCOCC4)cc3)cc2)cc1,4.1

Not all compounds are listed; count on the stated rates, not on these rows.
